NPYLR7 ag = agonists of mosquito NPYLR7 receptor, primary screen, cell-based, Aedes aegypti, calcium fluorescence, mosquito biting behavior. Aedes aegypti neuropeptide Y-like receptor 7 (NPYLR7). HEK293T NPYLR7/Galpha15, GCaMP6s calcium fluorescence. activation, % at 10 µM. 270,000 compounds, 0.15% hits. AID 1259423, 2018; in the data active = activation above about 40%;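 note: 0% = vehicle and 100% = reference agonist at the receptor; some compounds past the cut are filed as inactive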
NPYLR7 ag max-min = also measured in NPYLR7 ag; calls as there; activation, %; measured here: Max-Min RFU normalised activation; some inactives read as strong as hits;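 span of the calcium signal over five minutes; 0% = vehicle and 100% = native peptide agonist; compound fluorescence can raise it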
* hit, by the source's call; & = joins results of further samples. These rows are one share of the data, so the mix of outcomes need not match the whole.

Values run as follows: NPYLR7 ag	NPYLR7 ag max-min
Cc1ccc(CN(CCN2CCOCC2)Cc2nc(C(=O)NCc3ccc(F)cc3)co2)c(C)c1
    9	36
CC1CC(N2CCC(N3CCN(C)C3=O)CC2)C(=O)O1 (stereo not given)
    10	12
COc1ccccc1-c1coc2cc(OC(=O)c3ccco3)ccc2c1=O
    0	-5
CCCn1c(SCc2nc3sc4c(c3c(=O)[nH]2)CCC4)n[nH]c1=O
    2	1
CC1=NC2=C(C(=O)CC(c3ccccc3)C2)C(c2cccc(F)c2)C1C(=O)OC1CCCCC1 (stereo not given)
    3	-1
COc1ccc(CNc2nccn3ccnc23)cc1
    0	-1
COc1ccccc1-c1ccc(NCCNC(C)=O)nn1
    -1	-3
O=C(OCc1ccccc1)N1C[C@H](O)[C@H]2C[C@@H]1Cc1c2[nH]c2ccccc12
    27	34
CC(NC(=O)C12CC3CC(CC(C3)C1)C2)c1ccccn1 (stereo not given)
    3&10	2&2
Cc1cc(F)ccc1C(O)c1ncc(-c2cccc(F)c2)[nH]1 (stereo not given)
    -2	-4
CC1CCCN(C(=O)c2cn[nH]c2-c2ccc3c(c2)OCCO3)C1 (stereo not given)
    3	1
C=CC[C@H]1CC=C[C@H](c2ccccc2)N1
    -6	-8
Cn1ncc2c(=O)n(Cc3nnsc3Cl)cnc21
    2	2
Cc1csc(NC(=O)N2CCC(Nc3ccccc3F)CC2)n1
    -23	-26
Cc1cc(CNC(=O)c2ccc(OC3CCN(S(C)(=O)=O)CC3)c(Cl)c2)nn1C
    3	-10

Overlap with the part before: 4 compounds; new compounds follow.
Values run as follows: NPYLR7 ag	NPYLR7 ag max-min
C=CC[C@H]1CC=C[C@H](c2ccccc2)N1
    -6	-8
Cn1ncc2c(=O)n(Cc3nnsc3Cl)cnc21
    2	2
Cc1csc(NC(=O)N2CCC(Nc3ccccc3F)CC2)n1
    -23	-26
Cc1cc(CNC(=O)c2ccc(OC3CCN(S(C)(=O)=O)CC3)c(Cl)c2)nn1C
    3	-10
CCOC(=O)c1nn(-c2ccccc2)c(=O)c2c(NC(=O)C(C)Oc3ccccc3)scc12 (stereo not given)
    -7	-6
Cn1c(=O)c2c(NCCC3=CCCCC3)ccnc2n(C)c1=O
    6	4
COc1ccc(N=Nc2sc3ccccc3c2O)cc1
    0	-3
COc1ccc(C2c3cc(OC)c(OC)cc3CCN2C(=O)CCSC)cc1OC (stereo not given)
    -4	6
CCOc1ccccc1Oc1cnc(N)nc1-c1ccc(OC)cc1O
    1	1
COc1cccc(COC(CN2CCN(C(=O)c3cc(C)nc(Cl)c3)CC2)c2ccc(Cl)cc2)c1 (stereo not given)
    4	0
COc1cccc(Cc2nsc(Oc3cccc(C(=O)NC(c4ccccc4)c4ccccc4)c3)n2)c1
    14	12
CN(CC(F)F)C(=O)NCc1cc(F)ccc1Br
    6	3
CC(=O)SC(CC(=O)O)c1nc2ccccc2s1 (stereo not given)
    0	5
Cc1cccc(OCC(=O)N=Nc2c(O)[nH]c3ccc([N+](=O)[O-])cc23)c1
    12	2
CCn1c(SCC(=O)N2CCN(S(=O)(=O)c3ccc(F)cc3)CC2)nnc1-c1ccco1
    -3	-5
C=CCn1cc(F)c(=O)n(CC=C)c1=O
    1	0
CN(C)C1(CNC(=O)COCC(F)(F)F)CCCCCC1
    2	2
O=C(NCCO[N+](=O)[O-])c1cccnc1
    -3&1	-7&-3
O=C(CSc1ncccn1)NCC1Cc2cc(Cl)cc(-c3ccc4[nH]ccc4c3)c2O1 (stereo not given)
    -2	-9

Full records, looked up by structure. Screens in order: NPYLR7 ag	NPYLR7 ag max-min
`O=C(CSc1ncccn1)NCC1Cc2cc(Cl)cc(-c3ccc4[nH]ccc4c3)c2O1` (stereo not given) in the list: -2	-9
`CCOc1ccccc1Oc1cnc(N)nc1-c1ccc(OC)cc1O` in the list: 1	1
`COc1ccc(N=Nc2sc3ccccc3c2O)cc1` in the list: 0	-3
`COc1cccc(Cc2nsc(Oc3cccc(C(=O)NC(c4ccccc4)c4ccccc4)c3)n2)c1` in the list: 14	12

More compounds follow:
Values run as follows: NPYLR7 ag	NPYLR7 ag max-min
CCOC(=O)c1ccccc1N/C=C(\C#N)c1nc2ccccc2s1
    -4	-8
CC1CCC(=O)C(Sc2nc(C3CC3)cc(-c3cccs3)c2C#N)C1 (stereo not given)
    9	5
COc1cccc(OC)c1-c1cnc(NC(C)=O)cn1
    2	1
CNS(=O)(=O)c1ccc(CN2CCOC(Cc3cccc(F)c3)C2)cc1 (stereo not given)
    4	-5
CC(Nc1ccc2nnnn2n1)c1cccc(Cl)c1 (stereo not given)
    1	3
Cc1c(C(=O)NCCc2ccco2)oc2c(Cl)cccc12
    11	7
CC(=O)Oc1ccccc1C(=O)N1CCC(c2nc(-c3c(Cl)cccc3Cl)no2)CC1
    7	0
COCC1CCN(C(=O)c2cn(C(c3ccccc3)c3ccccc3)nn2)C1 (stereo not given)
    16	9
CC(c1ccc(F)cc1)N(C)c1ncnc2sccc12 (stereo not given)
    1	0
CCOc1cc([N+](=O)[O-])cc(/C=C2/SC(=S)N(CC(=O)O)C2=O)c1O
    43	30
COCCn1c(=NC(=O)CCS(=O)(=O)c2ccc(OC)cc2)sc2cc(F)cc(F)c21
    2	-1
CN1CCN(Cc2ccccc2Oc2ncc(C(F)(F)F)cc2Cl)CC1
    -4	-6
CCn1c(C2CCCN2CCn2cncn2)nc2ccccc21 (stereo not given)
    1	0
Cc1ccc(Cl)c(C(=O)N2CCC(n3c(-c4ccccc4)nc4ccc(F)cc43)CC2)c1
    4	1
O=C(c1csc(CSc2nnc(-c3cccnc3)n2-c2cccc(C(F)(F)F)c2)n1)N1CCOCC1
    17	30

An excerpt of these results, comma-delimited.
smiles,NPYLR7 ag,NPYLR7 ag max-min
CCOC(=O)c1ccccc1N/C=C(\C#N)c1nc2ccccc2s1,-4,-8
CC(Nc1ccc2nnnn2n1)c1cccc(Cl)c1 (stereo not given),1,3
COc1cccc(OC)c1-c1cnc(NC(C)=O)cn1,2,1

Next results follow:
Values run as follows: NPYLR7 ag	NPYLR7 ag max-min
Cn1nccc1C(=O)N1CCOc2c(O)cc(-c3csc4ccccc34)cc2C1
    11	11
CC(C)C(N=C1NS(=O)(=O)c2ccccc21)C(=O)NCCc1ccccc1F (stereo not given)
    4	3
COc1ccc2c(NCc3ccc4c(c3)OCO4)c(C#N)cnc2c1
    -2	-5
CC1=C(C(=O)N2CCC(N3CCC(C(=O)NCC4CCCO4)CC3)CC2)OCCO1 (stereo not given)
    1	-1
COc1cccc(CN2C(=O)C3(SCCN3C(=O)C3CCCC3)c3ccccc32)c1 (stereo not given)
    3	5
CCSc1nnc(CSc2nc(C)cc(C)n2)n1C
    4	2
CC(C)Cc1nc(CN(C)c2nc(-c3cccnc3)nc3c2CNC3)no1
    6	0
COCC(=O)NCC1Cc2cc(C)cc(-c3cc(C(C)=O)ccc3F)c2O1 (stereo not given)
    14	12
COc1cn(CC(=O)N(C)c2ccccc2)c(CO)cc1=O
    1	0
Cc1ccc(-c2nc3cc(C)ccn3c2NC(=O)c2ccc(C(C)(C)C)cc2)cc1
    -4	-1
CCCn1c(C2CC(=O)N(c3ccc(OCC)cc3)C2)nc2ccccc21 (stereo not given)
    4	12
CC(=O)Oc1c(-c2ccc(NC(=O)c3cccc(Cl)c3)cc2)c(-c2ccccc2F)nn1-c1ccc(C)cc1C
    16	14
O=C(NCCCCN1CCCC1)c1nc2ccccc2[nH]1
    27	23
COc1ccc(C(=O)N2CCCC(CCC(=O)NCc3ccccc3Cl)C2)cc1OC (stereo not given)
    3	0
Cc1nn(-c2nc(C)c(C)c(=O)[nH]2)c(C)c1CCC(=O)N1CCCCC1C (stereo not given)
    1	-3

(further entries)
Values run as follows: NPYLR7 ag	NPYLR7 ag max-min
CC1ON=C(c2ccccc2F)N(C)C1=O (stereo not given)
    -2	-2
CC(Oc1ccccc1)C(=O)Nc1ccc(N2CCOCC2)cc1 (stereo not given)
    -3	-6
CO[C@H]1CN(C(=O)c2ccc(-c3nnn(C)n3)cc2)CC[C@H]1N
    1	0
O=C(c1cccc(C(F)(F)F)c1)N1CCCC(N2CCN(CCOc3ccccc3)CC2)C1 (stereo not given)
    21	31
Cc1ncsc1CCC(=O)NCc1nncn1C1CCCCC1
    33	20
Cc1cc(C)c(-c2nccn2CCc2ccccn2)c(-n2cccn2)c1
    22	13
COC(=O)COc1cc(C(=O)NC(C)c2cnn(C)c2C)ccc1OC (stereo not given)
    -6	-7
O=C(NCC(c1ccco1)N1CCc2ccccc21)c1ccc([N+](=O)[O-])cc1Cl (stereo not given)
    5	0
Cc1onc(-c2ccccc2Cl)c1C(=O)NC1CC1
    1	-2
CC(C)(C)c1cc2nc(-c3ccccc3)cc(C(=O)NCc3ccc4c(c3)OCO4)n2n1
    13	13
O=C(NC1CC1)C1CCCN(C(=O)c2ccc(-c3ccc(F)cc3)o2)C1 (stereo not given)
    2	0
Cc1nn(C)c(N)c1C(O)(c1nccn1C)C(F)(F)F (stereo not given)
    4	4
O=C1C(C(c2ccc(Br)cc2)N2CCOCC2)Sc2nc(-c3ccco3)nn21 (stereo not given)
    2	2
CC(C)NC(=O)c1cc2nc(-c3cccs3)cc(C(F)(F)F)n2n1
    -9	-16
N=c1sccn1CC(=O)O
    2	-1

(next part)
Values run as follows: NPYLR7 ag	NPYLR7 ag max-min
CCCN(CC#Cc1ccccc1)C(=O)c1c(Cl)cnn1CC
    1	-4
Cc1cc(N2C(=O)c3oc4ccccc4c(=O)c3C2c2cccnc2)no1 (stereo not given)
    7	4
CCN=Cc1cc(Br)cc(Br)c1OC(=O)c1ccccc1C(=O)O
    -1	-4
O=[N+]([O-])c1ccc2[nH]c(O)c(N=NC(=S)NCC3CCCO3)c2c1 (stereo not given)
    3	10
COCCN(Cc1ccc(OS(=O)(=O)c2ccc(F)cc2)cc1)C(=O)Nc1ccc(F)cc1F
    15	8
O=C1C(Cc2ccccc2)NC2(CCNCC2)N1Cc1ccc(F)cc1 (stereo not given)
    22	15
O=C(CCn1ccc(=O)[nH]c1=O)NC1CCCN(CCc2ccccc2)C1 (stereo not given)
    5	6
Cc1nn(C(C)(C)C)c(OC(=O)c2ccccc2)c1S(=O)(=O)c1ccccc1
    0	42
BrC1CC2OC2CC1Br (stereo not given)
    -4	-6
COc1cccc(NC(=O)C2(C)CCN2C(=O)CC(c2ccccc2)c2ccccc2)c1 (stereo not given)
    8	5
COc1ccc(N2CCN(C(=O)C3CC=CCC3C(=O)N3CCC[C@H]3C(=O)OCc3ccccc3)CC2)cc1 (stereo not given in full)
    -9	-14
COc1cccc(Cc2nsc(N(CCC(=O)N3CCN(c4cccc(C(F)(F)F)c4)CC3)C(C)C)n2)c1
    -11	-14
COc1nccnc1-c1cc(NCc2cccnc2)nc2[nH]ccc12
    4	-1
Cc1ccc(-c2nc3cc(C)ccn3c2NC(=O)COc2ccccc2)cc1
    -5	0
CCCCCCCC(=O)N=Nc1c(O)[nH]c2ccccc12
    -10	-9

The results go on.
Values run as follows: NPYLR7 ag	NPYLR7 ag max-min
Cc1[nH]c(-c2ccccc2)nc1C(=O)N1CCCC2(CC1)CN(C)C(=O)O2 (stereo not given)
    -1	-4
Cc1cccn2c(=O)c3cc(C#N)c(=O)n(CC4CCCO4)c3nc12 (stereo not given)
    3	0
CN1CCN(C(=O)Cn2cnc3c2c(=O)n(C)c(=O)n3C)CC1
    3	-2
CC(NC(=O)CCc1c[nH]c2ccccc12)c1nc2ccccc2[nH]1 (stereo not given)
    1	-4
C=CCCC(O)CN(Cc1ccccc1)Cc1ccc(C)o1 (stereo not given)
    2	7
COC(=O)c1sc(N2C(=O)C(O)=C(C(=O)c3ccc(C)o3)C2c2ccccc2F)nc1C (stereo not given)
    4	2
Cc1cc(=O)oc(C)c1C(=O)N1CCC2(CCNCC2)CC1
    6	4
Cc1ccc2c(C)c(C(=O)N3CCN4CCCC4C3)oc2c1C (stereo not given)
    4	-1
O=C1CC2(CCCC2)CC(=O)N1CCNCC1COc2ccccc2O1 (stereo not given)
    -1	-6
COC(=O)CCC(=O)N1CCCC(N2CCN(c3cccc(C(F)(F)F)c3)CC2)C1 (stereo not given)
    4	0
CCn1ncc(C(=O)N2CC[C@@]3(O)CCCC[C@H]3C2)c1C
    0	25
CCOC(=O)Cn1c(=O)c2c(nc3n(C4CCCCC4)c(C)c(C)n23)n(C)c1=O
    1	-1
O=C1COc2cc(C(=O)N(Cc3ccccc3)CC3CCC3)ccc2N1
    -5	-6
CCOC(=O)C1(CCCc2ccccc2)CCN(C(=O)c2ccc(COC)o2)CC1
    2	1
CC1CCCN(c2nc3c(c(=O)n(C)c(=O)n3C)n2Cc2ccccc2)C1 (stereo not given)
    -2	-8

(cont.)
Values run as follows: NPYLR7 ag	NPYLR7 ag max-min
COc1cccc(CCC(=O)N2CCc3c([nH]c4ccccc34)C2c2cccc(C)c2)c1 (stereo not given)
    0	-3
OCCn1cnc(-c2ccccc2)c1-c1cc(CN2CCCC2)cs1
    -3	-3
Nc1ncnc(N2CCCC2)c1[N+](=O)[O-]
    1	8
Cc1ccc(-c2nnc(NC(=O)C(NC(=O)c3ccc(C)c([N+](=O)[O-])c3)C(C)C)s2)cc1 (stereo not given)
    8	10
CC(C)c1ccc(OC(C)(C)C(=O)Nc2ccon2)cc1
    1	4
CC1CCCN(C(=O)CCc2nc(N)nc(Nc3ccccc3)n2)C1 (stereo not given)
    2	0
Cc1[nH]nc2c1C(c1ccc(C(C)C)cc1)C(C#N)C(=N)O2 (stereo not given)
    5	-1
CC(Oc1cccnc1)C(=O)Nc1cc(F)cc(N2CCCC2)c1 (stereo not given)
    12	9
CCc1ccc(C2c3cccn3CCCN2Cc2ccncc2)cc1 (stereo not given)
    1	11

Source: PubChem BioAssay (Fisher Drug Discovery Resource Center)
